Screening data: PubChem BioAssay, National Center for Advancing Translational Sciences (NCATS)
TSHR ag = activates the human thyroid stimulating hormone receptor | Potency, µM (titrated, usually from 57.1 µM), for inactives: at the highest dose activation, usual class: activators | 0.48% of 73,000 active | HEK293-CNG-TSHR cells (CNG channel as cAMP sensor), membrane potential dye, cAMP; active = well fitted activation curve of enough size with the parental cells flat; inconclusive = any curve in the parental cells; inactive = parental cells flat and receptor cells flat or falling; also: potency is read from the fitted curve at half-maximal effect; % of control where 0% means no effect; weak receptor curves with flat parental cells got no call and are not listed
Target sequence (P16473 whole entry, looked up): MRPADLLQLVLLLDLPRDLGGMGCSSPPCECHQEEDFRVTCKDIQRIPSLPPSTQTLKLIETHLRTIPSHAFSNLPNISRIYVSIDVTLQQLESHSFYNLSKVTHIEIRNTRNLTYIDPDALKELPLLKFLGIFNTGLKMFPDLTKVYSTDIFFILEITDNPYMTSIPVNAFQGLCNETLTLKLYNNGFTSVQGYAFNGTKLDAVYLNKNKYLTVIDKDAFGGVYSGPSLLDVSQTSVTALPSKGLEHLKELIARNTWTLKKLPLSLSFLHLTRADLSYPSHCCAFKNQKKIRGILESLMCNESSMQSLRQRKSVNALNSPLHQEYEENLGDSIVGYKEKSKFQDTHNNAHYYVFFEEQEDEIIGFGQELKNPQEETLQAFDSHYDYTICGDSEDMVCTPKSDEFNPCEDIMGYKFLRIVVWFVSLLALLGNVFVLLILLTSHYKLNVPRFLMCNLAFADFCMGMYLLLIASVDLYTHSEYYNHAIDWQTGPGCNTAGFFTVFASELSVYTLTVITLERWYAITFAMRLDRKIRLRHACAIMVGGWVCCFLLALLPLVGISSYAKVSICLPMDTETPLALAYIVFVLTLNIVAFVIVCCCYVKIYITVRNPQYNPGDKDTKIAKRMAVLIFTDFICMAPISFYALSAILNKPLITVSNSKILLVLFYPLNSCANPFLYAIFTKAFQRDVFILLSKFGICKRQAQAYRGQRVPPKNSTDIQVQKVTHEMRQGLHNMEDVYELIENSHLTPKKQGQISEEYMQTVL
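cAMP rise detected as CNG-channel membrane depolarization by fluorescent dye (emission 590 nm), 30 min after compound, following 60 min dye loading containing 100 uM RO 20-1724 at room temperature. Cells: TSHR/CNG HEK 293, with parental CNG HEK 293 as control.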
A488 autofl = compound fluoresces in the A488 spectral region. 0.1% of 59,000 active. max dye equivalency, M. compound autofluorescence, A488 spectral region, dye equivalency; active compounds read high; active = above 10 nM dye equivalent; inconclusive = 1 to 10 nM; inactive = 1 nM or less; about half of its hits are not listed in these tables;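 also: highest value over a series up to 38 µM; compound alone in buffer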
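Spectroscopic profiling in the A488 region: compounds in pH 8.0 Tris (100 mM), 15 min RT, CCD imaging with 480 nm excitation and 540 nm emission; responses normalized against A488 dye standards.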
Resorufin fluor = compounds fluorescent in resorufin spectral region. max dye-equivalent concentration, M. Compound fluorescence, resorufin region 547/598 nm, buffer; active compounds read high. 0.04% of 59,000 active; active = above 10 nM dye equivalent; inconclusive = 1 to 10 nM; inactive = 1 nM or less; a few of its hits are not listed in these tables; also: highest value over a series up to 38 µM
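Compounds in 100 mM Tris, pH 8.0, incubated 15 min at room temperature, then fluorescence read at 547 nm excitation/598 nm emission. Signal converted to dye-equivalent concentration via an on-plate six-point resorufin standard curve, per compound concentration.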
A647 fluor = compound fluoresces in the A647 spectral region. Compound fluorescence, A647 channel (570/671 nm), Tris buffer. max dye-equivalent concentration, M. 59,000 tested, under 10 active. AID 592; active means above 1 µM dye equivalent; inconclusive means 0.1 to 1 µM; inactive means 0.1 µM or less;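 also: values scaled relative to a standard on each plate; highest value over a series up to 38 µM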
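Spectral profiling of library compounds in pH 8.0 Tris: 15 min room-temperature incubation, single ex/em pair (570/671 nm), response normalized to Alexa 647 equivalents.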
AID923 = qHTS Assay for Allosteric/Competitive Inhibitors of Caspase-1: Spectroscopic Profiling in AFC Spectral Region; compound fluorescence, AFC spectral region (405/520 nm); almost no hit is shown here; Potency, µM (titrated, usually from 57.5 µM), inactives show at the highest dose fluorescence increase, hits mostly activators; 1.1% of 75,000 active; AID 923, 2007; active = well fitted activation curve with a large enough effect; inconclusive = small, poorly fitted or top-dose-only effect;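 also: potency is read from the fitted curve at half-maximal effect; 0% is about no effect; scaled to a free AFC standard on each plate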
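Compound autofluorescence profiled at 405 nm ex/520 nm em during kinetic caspase 1 run (50 nM enzyme, 5 uM Ac-WEHD-AFC, HEPES pH 7.5, 10 mM DTT). Titration up to 57 uM; baseline from regression intercept, normalized to AFC standard curve.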
An asterisk follows results filed as active; i = inactive; ? = inconclusive; . = not tested or not shown; [ ] = another dose, or the depositor's remark. The list is partial (hit frequency here may not be typical).

SMILES	TSHR ag	A488 autofl	Resorufin fluor	A647 fluor	AID923
COC(=O)C1=C(C)NC(=O)CC1c1cc2c(cc1Br)OCO2 (stereo not drawn)	?	.	.	.	0.9%
COc1ccc(C(=O)Nc2cccnc2)cc1S(=O)(=O)N1CCOCC1	-5%	.	.	.	0.3%
O=C1c2oc3ccc(F)cc3c(=O)c2C(c2cccc(O)c2)N1CCCN1CCOCC1 (stereo not drawn)	-2%	.	.	.	0.2%
Cc1noc(NS(=O)(=O)c2ccc(N3Cc4ccccc4C3=O)cc2)c1C	-5%	i	i	5.6e-09	-3.8%
CCCCCCCCCCCCCCCCCCc1ccc(C(=O)/C=C\C(=O)O)cc1	13%	.	.	.	-3.6%
COc1ccccc1N=Cc1nc(-c2ccccc2)oc1OC(C)=O	.	i	i	3e-08	.
COC(=O)Cc1csc(N)n1	4%	i	i	3.3e-09	1.4%
O=C1O[C@@H]([C@H](O)[C@H](O)[C@H](O)CO)[C@@H](O)[C@@H]1O	4%[11.4 µM]	i	i	3.7e-08	-3.3%[11.5 µM]
COc1cccc(C(=O)Nc2ccc3nc(N4CCN(c5ncccn5)CC4)cc(C)c3c2)c1OC	.	i	i	4.2e-08	0.1%
CC(CCc1ccccc1)NC(=O)C1CCN(S(=O)(=O)c2cnc[nH]2)CC1 (stereo not drawn)	2%	i	i	1.2e-08	-1.7%
COC(=O)c1[nH]c2c(c1C)C(=O)CCC2	?	i	i	2.9e-09	0.8%
COc1ccc2c(c1)c(=O)c(Br)c(C)n2Cc1ccccc1	?	.	.	.	-0.9%
Cc1ccc(C2CC(c3ccccc3C)n3nc(N)nc3N2)cc1 (stereo not drawn)	21%	.	.	.	-0.7%
CC1=C(C(=O)Nc2cccnc2)C(c2cccnc2)n2nc(-c3cccs3)nc2N1 (stereo not drawn)	-1%	i	i	2.4e-08	-0.5%
CC(C)(C)c1ccc(OCCN2CCCC2)cc1	5%[11.4 µM]	.	.	.	1.8%
CCCN(CCC)CCCNC(=O)c1cc2cc3ccc(OC)cc3nc2o1	15%	i	i	1e-09	7.1%
CN(C)CCCNc1oc(-c2cccc(Cl)c2)nc1C#N	10%	i	i	2.2e-08	-0.2%
O=C(CCC1COc2ccccc2O1)Nc1ncccc1O (stereo not drawn)	-5%	i	i	1e-09	0.5%
COc1ccc(-c2nc(N3CCOCC3)nc3nn4c(C)c(CCC(=O)O)c(C)nc4c23)cc1	15%	i	i	2.8e-08	4.8%
CC1(C)CC(=O)C=C(Nc2ccc(Br)cn2)C1	0%	i	i	5.2e-09	-0.3%
COc1ccc(O)c(C(=O)c2cc(C#N)c(=O)n(CCN3CCOCC3)c2)c1	4%	i	i	1e-09	3.8%
O=C(Cn1nc(Cc2cccnc2)c2ccccc2c1=O)NCc1ccc2c(c1)OCO2	18%	.	.	.	2.9%
CC(C)c1nc2sc3c(c2c(=O)o1)CCCC3	.	i	i	1e-09	.
NC(=O)c1ccccc1OCCOCCOCCOc1ccccc1C(N)=O	.	i	i	1.8e-09	.
CCC(C)COC(=O)c1ccc(C(=O)O)cc1 (stereo not drawn)	-2%	i	i	1e-09	1.3%
CCOC(=O)C1=C(CSc2nc(C)cc(C)c2C#N)OC(N)=C(C#N)C1c1cccs1 (stereo not drawn)	.	i	i	2.8e-08	.
Cc1cc(NC2C3CC4CC(C3)CC2C4)n2nnnc2n1 (stereo not drawn)	-9%	i	i	1e-09	10%
Nc1ccnc(C(F)(F)F)c1C(=O)c1ccccc1	4%	i	i	3.4e-08	-1.9%
O=C(CN(Cc1ccccc1)C(=O)c1ccco1)NCc1ccc(F)cc1	4%	i	i	3.5e-08	-0.4%
COC(=O)c1sc(N)c(C(=O)OC)c1CSc1nnc(-c2ccccc2Cl)n1C	?	i	i	6.1e-09	0.4%
CCOc1ccc2c(C)nc(NC3=NC(C)(C)C=C(C)N3)nc2c1	.	i	i	2.8e-09	.
CN1CCN(CC(=O)Nc2ccc(Cl)cc2Cl)CC1	0%	i	i	1.8e-08	-0.8%
COc1ccccc1C(=O)N1CCc2ccccc21	-7%	i	i	1.8e-08	0.5%
CC(C)(C)OC(=O)C1=NOC2(C=CC(=O)C=C2)C1	-3%[11.4 µM]	.	.	.	2.2%[11.5 µM]
CC1CN(S(=O)(=O)c2ccc(NC(=O)CCCN3C(=O)c4ccccc4C3=O)cc2)CC(C)O1 (stereo not drawn)	1%	i	i	4.9e-09	-0.6%
COCC(=O)Nc1ccc(N(C)C)cc1	0%	i	i	1.5e-08	-2.1%
C=C/C(C)=C/[C@]1(C)SC(=O)C(C)=C1O	5%	i	i	1.9e-08	-2.8%
COC(=O)C/C=C\[C@@H](C)[C@H]1C=C[C@H](O)[C@@H](CO)O1	-1%[11.4 µM]	.	.	.	-4.3%[11.5 µM]
Cc1occc1-c1nnc(SCC(=O)N2c3ccccc3CCc3ccccc32)n1C	?	i	i	8.7e-09	-2.8%
CC(NS(C)(=O)=O)C(c1cccs1)N1CCN(c2ccc(F)cc2)CC1 (stereo not drawn)	-8%	i	i	3.1e-09	-0.5%

In a second layout: 2 of the compounds above.
molecule | TSHR ag | A488 autofl | Resorufin fluor | A647 fluor | AID923
CCC(C)COC(=O)c1ccc(C(=O)O)cc1 (stereo not drawn) | -2% | i | i | 1e-09 | 1.3%
CCOC(=O)C1=C(CSc2nc(C)cc(C)c2C#N)OC(N)=C(C#N)C1c1cccs1 (stereo not drawn) | . | i | i | 2.8e-08 | .

21 entries from above, bar-delimited:
SMILES | TSHR ag | A488 autofl | Resorufin fluor | A647 fluor | AID923
COc1ccc2c(c1)c(=O)c(Br)c(C)n2Cc1ccccc1 | ? | . | . | . | -0.9%
Cc1ccc(C2CC(c3ccccc3C)n3nc(N)nc3N2)cc1 (stereo not drawn) | 21% | . | . | . | -0.7%
CC1=C(C(=O)Nc2cccnc2)C(c2cccnc2)n2nc(-c3cccs3)nc2N1 (stereo not drawn) | -1% | i | i | 2.4e-08 | -0.5%
CC(C)(C)c1ccc(OCCN2CCCC2)cc1 | 5%[11.4 µM] | . | . | . | 1.8%
CCCN(CCC)CCCNC(=O)c1cc2cc3ccc(OC)cc3nc2o1 | 15% | i | i | 1e-09 | 7.1%
CN(C)CCCNc1oc(-c2cccc(Cl)c2)nc1C#N | 10% | i | i | 2.2e-08 | -0.2%
O=C(CCC1COc2ccccc2O1)Nc1ncccc1O (stereo not drawn) | -5% | i | i | 1e-09 | 0.5%
COc1ccc(-c2nc(N3CCOCC3)nc3nn4c(C)c(CCC(=O)O)c(C)nc4c23)cc1 | 15% | i | i | 2.8e-08 | 4.8%
CC1(C)CC(=O)C=C(Nc2ccc(Br)cn2)C1 | 0% | i | i | 5.2e-09 | -0.3%
COc1ccc(O)c(C(=O)c2cc(C#N)c(=O)n(CCN3CCOCC3)c2)c1 | 4% | i | i | 1e-09 | 3.8%
O=C(Cn1nc(Cc2cccnc2)c2ccccc2c1=O)NCc1ccc2c(c1)OCO2 | 18% | . | . | . | 2.9%
CC(C)c1nc2sc3c(c2c(=O)o1)CCCC3 | . | i | i | 1e-09 | .
NC(=O)c1ccccc1OCCOCCOCCOc1ccccc1C(N)=O | . | i | i | 1.8e-09 | .
CCC(C)COC(=O)c1ccc(C(=O)O)cc1 (stereo not drawn) | -2% | i | i | 1e-09 | 1.3%
CCOC(=O)C1=C(CSc2nc(C)cc(C)c2C#N)OC(N)=C(C#N)C1c1cccs1 (stereo not drawn) | . | i | i | 2.8e-08 | .
Cc1cc(NC2C3CC4CC(C3)CC2C4)n2nnnc2n1 (stereo not drawn) | -9% | i | i | 1e-09 | 10%
Nc1ccnc(C(F)(F)F)c1C(=O)c1ccccc1 | 4% | i | i | 3.4e-08 | -1.9%
O=C(CN(Cc1ccccc1)C(=O)c1ccco1)NCc1ccc(F)cc1 | 4% | i | i | 3.5e-08 | -0.4%
COC(=O)c1sc(N)c(C(=O)OC)c1CSc1nnc(-c2ccccc2Cl)n1C | ? | i | i | 6.1e-09 | 0.4%
CCOc1ccc2c(C)nc(NC3=NC(C)(C)C=C(C)N3)nc2c1 | . | i | i | 2.8e-09 | .
CN1CCN(CC(=O)Nc2ccc(Cl)cc2Cl)CC1 | 0% | i | i | 1.8e-08 | -0.8%

Further results
SMILES	TSHR ag	A488 autofl	Resorufin fluor	A647 fluor	AID923
COc1ccc2c(c1)CCc1c(C(=O)N3CCCc4ccccc43)noc1-2	?	i	i	4.4e-08	0.5%
Cc1nc(NCC2CCCO2)c2nnn(Cc3ccccc3Cl)c2n1 (stereo not drawn)	4%	i	i	1e-09	1.4%
Cc1cc(NC(=O)CSc2nc(C(C)C)nc3sc(C)c(C)c23)no1	?	i	i	7.2e-09	0.8%
CCCOc1ccc(N2C(=O)CC(N3CCN(c4ccccc4F)CC3)C2=O)cc1 (stereo not drawn)	1%	.	.	.	-0.7%
Cc1ccc(S(=O)(=O)C2(C(=O)Nc3cccnc3)CC2)cc1	2%	.	.	.	0.8%
Cn1c(=O)c2c(nc(Br)n2CC(=O)C23CC4CC(CC(C4)C2)C3)n(C)c1=O	?	i	i	1e-09	0.0%
COc1cccc(-c2nnc(SCC(=O)Nc3ccc4c(c3)OCCO4)n2Cc2ccco2)c1	?	i	i	8.1e-09	-1.8%
COc1ccc(OC)c(-n2cnnn2)c1	.	i	i	1e-09	0.6%
O=C(Cn1cnc2c(cnn2-c2ccccc2)c1=O)c1ccc(Cl)cc1	16%	.	.	.	-1.1%
O=C(c1ccc(C(=O)N2CCCc3ccccc32)nc1)N1CCCc2ccccc21	-2%	.	.	.	1.4%
CCOc1ccc(CCNC(=O)Cn2c(-c3nonc3N)nc3ccccc32)cc1OCC	?	i	i	1.7e-09	1.7%
COC(=O)C1C(=O)C=C(N2CCOCC2)CC1(C)C (stereo not drawn)	-2%	.	.	.	0.4%
Cc1ccc2c(CSc3nncs3)cc(=O)oc2c1	5%	i	i	3.4e-08	-2.6%
COc1ccc(C(CC(=O)Nc2nccs2)n2cccc2)cc1 (stereo not drawn)	1%	i	i	3e-08	1.2%
COc1ccccc1-c1cc(NCc2cnc(C)cn2)ncn1	?	i	i	1e-09	0.7%
O=C(NC(O)C(=O)c1cccs1)c1cccnc1 (stereo not drawn)	-1%	i	i	1e-09	0.9%
CCCc1noc2c1C(c1ccoc1)C(C#N)=C(N)N2 (stereo not drawn)	5%	i	i	4.5e-08	1.1%
CC(=O)c1cccc(S(=O)(=O)N2CCN(c3nc4cc(C)cc(C)c4cc3C#N)CC2)c1	2%	i	i	3.3e-08	10%
